Screens from PubChem BioAssay.
NPYLR7 agonist: mosquito NPYLR7 agonism | HEK293T NPYLR7/Galpha15, GCaMP6s calcium fluorescence | activation, % at 10 µM | hit rate 0.15% among 270,000; in the data active means activation above about 40%;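 further: 0% = vehicle and 100% = reference agonist at the receptor; some compounds past the cut are filed as inactive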
NPYLR7 agonist max-min: further read-out of NPYLR7 agonist, marked with its call; activation, %; measured here: Max-Min RFU normalised activation; some inactives read as strong as hits;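 span of the calcium signal over five minutes; 0% = vehicle and 100% = native peptide agonist; compound fluorescence can raise it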
* = called active by the depositor; & = joins results of further samples. Some of the compounds tested (hit frequency here may not be typical).

Each structure is followed by: NPYLR7 agonist	NPYLR7 agonist max-min
CC1=NN(c2ccccc2)C(=O)/C1=C\c1cc(C)n(-c2cccc([N+](=O)[O-])c2)c1C
    -4	0
CC(C)C(=O)N1CCCC1(C)C(=O)Nc1cccc(Cl)c1 (stereo not given)
    6	3
CCCCCNC(=O)CCN(c1nc(Cc2ccc(Cl)cc2)ns1)C(C)C
    -6	4
COc1ccc(-c2nc3scc(CCNC(=O)/C=C/c4ccccc4)n3n2)cc1
    2	2
c1ccc(-c2nnc(-c3ccccn3)nn2)nc1
    1	8
CCCN(C(C)C(=O)Nc1ccccc1)S(=O)(=O)c1c(C)nn(C)c1Cl (stereo not given)
    -3	-6
CCNC(=S)NNC(=O)c1ccc(Cn2cc([N+](=O)[O-])cn2)cc1
    3	9
Cc1c(C#N)c(NC(=O)CN2CCCC3CCCCC32)n(Cc2cccs2)c1C (stereo not given)
    1	-1
Cc1ccccc1NC(=O)CS(=O)(=O)Cc1nnnn1-c1ccccc1
    3	1
Cc1nnc(SCC(=O)NC(=O)NC2CCCC2)s1
    -4	-3
COc1cc2c(cc1OC)-c1cc3nc4ccccc4nc3n1C(C)(C)C2
    19	13
CC1=NC2=C(C(=O)CC(c3ccccc3)C2)C(c2ccccc2Cl)C1C(=O)OC1CCCCC1 (stereo not given)
    -3	-6
CN(Cc1cnn(C)c1)C1CCCN(c2ccccc2Cl)C1=O (stereo not given)
    3	8
O=C(c1cccnc1Oc1ccc(Cl)cc1)N1CCC(n2c(=O)[nH]c3ccccc32)CC1
    -7	-11
Cc1c(Br)c(C(N)=O)nn1C
    -1	-3
COc1ccc(C)cc1C(C)NCC1CNc2cc(C)nn2C1 (stereo not given)
    -19	-22
CC(c1cccnc1)N(C)C(=O)CCSCc1ccc(F)cc1 (stereo not given)
    -5	-10
CC(=O)N1CCN(CC(=O)Nc2nc3ccc(F)cc3s2)CC1
    0	-3
CN(Cc1nc2ccccc2c(=O)[nH]1)C(=O)/C=C/c1cc(Cl)c2c(c1)OCCCO2
    0	0
CC1CN(c2ccccc2)c2nc3c(c(=O)n(CC(=O)c4ccccc4)c(=O)n3C)n2C1 (stereo not given)
    2	-2
COc1ccc(Sc2ccc(NC(=O)c3cc(C)no3)cc2Cl)cc1
    7	5
COc1ccc(CN2CCC(C(=O)NC(c3ccccc3)c3ncccc3C)CC2)cc1 (stereo not given)
    13	5
CCOC(=O)c1[nH]c(C)c(C(=O)NC2CCCN(CCCc3ccccc3)C2)c1C (stereo not given)
    2	-4
CC(C)N1CCCC(CCNC(=O)c2ccc(O)c(Cl)c2)C1 (stereo not given)
    -1	0
Cc1c(-c2ccccc2F)[nH]c2ccc(CNc3cnccn3)cc12
    1	-1
CCCCN1C(SCC(=O)NCc2cccs2)=NS(=O)(=O)c2ccccc21
    4	4
COC(=O)c1ccc(NC(=O)CSc2nccn3nc(-c4ccc(C)cc4)cc23)cc1
    -1	-3
Cc1ccc(S(C)(=O)=O)cc1S(=O)(=O)N(C)CCc1ccncc1
    3	1
COc1ccc(CNS(=O)(=O)C2=Cc3ccccc3CC2)cn1
    2	1
COc1ccc(C2C3=C(Nc4[nH]c(=O)[nH]c(=O)c42)c2ccccc2C3=O)cc1 (stereo not given)
    -2	-6
Cc1ccc(CN(Cc2ccc(F)cc2)C(=O)CNC2CC2)s1
    -3	-11
O=C(N[C@H](Cc1ccccc1)C(=O)N1CCCC1c1nnc2c(C(F)(F)F)cccn12)OCc1ccccc1 (stereo not given in full)
    -7	-13
c1ccc(Cn2c(SCc3nc4ccccc4[nH]3)nc3ccccc32)cc1
    -1	-7
CCOC(=O)c1sc(NC(=O)c2ccc(C(C)=O)cc2)nc1-c1ccccc1
    -2	-2
Cc1cccc(C)c1OCCN(CCC(N)=O)c1ccc(F)cc1
    -5	-6
COC(=O)c1ccccc1C(=O)OCc1cc(-c2cc3ccccc3o2)on1
    1	-1
CC1CC1C(=O)Nc1cnn(-c2ccccc2S(C)(=O)=O)c1 (stereo not given)
    -8	-9
CCCCc1ccc(-c2nc(C=Nc3ccccc3C#N)c(O)o2)cc1
    -2	-9
CC(C)C1CN(C(CO)CO)CCC(=O)N1CC1CC1 (stereo not given)
    -1	-11
COc1ccc(C)cc1N1C(=O)CSC1c1ccc(NC(=O)c2ccc([N+](=O)[O-])cc2Cl)cc1 (stereo not given)
    2	10

Reformatted tab-delimited: part of the list above.
SMILES	NPYLR7 agonist	NPYLR7 agonist max-min
O=C(c1cccnc1Oc1ccc(Cl)cc1)N1CCC(n2c(=O)[nH]c3ccccc32)CC1	-7	-11
Cc1c(Br)c(C(N)=O)nn1C	-1	-3
COc1ccc(C)cc1C(C)NCC1CNc2cc(C)nn2C1 (stereo not given)	-19	-22
CC(c1cccnc1)N(C)C(=O)CCSCc1ccc(F)cc1 (stereo not given)	-5	-10
CC(=O)N1CCN(CC(=O)Nc2nc3ccc(F)cc3s2)CC1	0	-3
CN(Cc1nc2ccccc2c(=O)[nH]1)C(=O)/C=C/c1cc(Cl)c2c(c1)OCCCO2	0	0
CC1CN(c2ccccc2)c2nc3c(c(=O)n(CC(=O)c4ccccc4)c(=O)n3C)n2C1 (stereo not given)	2	-2
COc1ccc(Sc2ccc(NC(=O)c3cc(C)no3)cc2Cl)cc1	7	5
COc1ccc(CN2CCC(C(=O)NC(c3ccccc3)c3ncccc3C)CC2)cc1 (stereo not given)	13	5
CCOC(=O)c1[nH]c(C)c(C(=O)NC2CCCN(CCCc3ccccc3)C2)c1C (stereo not given)	2	-4
CC(C)N1CCCC(CCNC(=O)c2ccc(O)c(Cl)c2)C1 (stereo not given)	-1	0
Cc1c(-c2ccccc2F)[nH]c2ccc(CNc3cnccn3)cc12	1	-1
CCCCN1C(SCC(=O)NCc2cccs2)=NS(=O)(=O)c2ccccc21	4	4
COC(=O)c1ccc(NC(=O)CSc2nccn3nc(-c4ccc(C)cc4)cc23)cc1	-1	-3
Cc1ccc(S(C)(=O)=O)cc1S(=O)(=O)N(C)CCc1ccncc1	3	1
COc1ccc(CNS(=O)(=O)C2=Cc3ccccc3CC2)cn1	2	1
COc1ccc(C2C3=C(Nc4[nH]c(=O)[nH]c(=O)c42)c2ccccc2C3=O)cc1 (stereo not given)	-2	-6
Cc1ccc(CN(Cc2ccc(F)cc2)C(=O)CNC2CC2)s1	-3	-11
O=C(N[C@H](Cc1ccccc1)C(=O)N1CCCC1c1nnc2c(C(F)(F)F)cccn12)OCc1ccccc1 (stereo not given in full)	-7	-13
c1ccc(Cn2c(SCc3nc4ccccc4[nH]3)nc3ccccc32)cc1	-1	-7
CCOC(=O)c1sc(NC(=O)c2ccc(C(C)=O)cc2)nc1-c1ccccc1	-2	-2
Cc1cccc(C)c1OCCN(CCC(N)=O)c1ccc(F)cc1	-5	-6
COC(=O)c1ccccc1C(=O)OCc1cc(-c2cc3ccccc3o2)on1	1	-1
CC1CC1C(=O)Nc1cnn(-c2ccccc2S(C)(=O)=O)c1 (stereo not given)	-8	-9
CCCCc1ccc(-c2nc(C=Nc3ccccc3C#N)c(O)o2)cc1	-2	-9
CC(C)C1CN(C(CO)CO)CCC(=O)N1CC1CC1 (stereo not given)	-1	-11
COc1ccc(C)cc1N1C(=O)CSC1c1ccc(NC(=O)c2ccc([N+](=O)[O-])cc2Cl)cc1 (stereo not given)	2	10

Reformatted: four of the compounds above.
molecule | NPYLR7 agonist | NPYLR7 agonist max-min
CC(c1cccnc1)N(C)C(=O)CCSCc1ccc(F)cc1 (stereo not given) | -5 | -10
CC(=O)N1CCN(CC(=O)Nc2nc3ccc(F)cc3s2)CC1 | 0 | -3
CN(Cc1nc2ccccc2c(=O)[nH]1)C(=O)/C=C/c1cc(Cl)c2c(c1)OCCCO2 | 0 | 0
CC1CN(c2ccccc2)c2nc3c(c(=O)n(CC(=O)c4ccccc4)c(=O)n3C)n2C1 (stereo not given) | 2 | -2

Next section:
Each structure is followed by: NPYLR7 agonist	NPYLR7 agonist max-min
COc1ccccc1N(C)S(=O)(=O)c1ccc(C)c(C(=O)N2CCOCC2C#N)c1 (stereo not given)
    -1	-1
CC(=O)Nc1cccc(NC(=O)CSc2ccc([N+](=O)[O-])cc2[N+](=O)[O-])c1
    0	-1
CCOC(=O)[C@@H]1CN(C(=O)c2cccnc2)[C@H]2c3ccccc3O[C@@H]12
    0	2
Cc1ccc(-c2csc(NC(=O)c3ccco3)n2)cc1C
    -17	-27
CC(C)(C)c1cc2nc(C(=O)O)cc(-c3ccc(Cl)cc3)n2n1
    -9	-8
O=P1(NN=Cc2ccc(F)cc2)C=C(c2ccccc2)OC(c2ccccc2)=C1
    2	1
CCCNC(=O)C(C)S(=O)(=O)c1ccc(F)c(F)c1 (stereo not given)
    4	4
Cc1cccnc1C(NC(=O)C1CCN(CCOc2ccc3ccccc3c2)CC1)c1ccc(F)cc1 (stereo not given)
    -6	-1
CC(=O)Nc1ccc(S(=O)(=O)N(CC(=O)N(CCc2c[nH]c3ccccc23)Cc2ccc(C)cc2)C(C)C)cc1
    18	24
Cc1ccc(-c2nnc(CCC(=O)Nc3ncccc3O)o2)cc1
    1	2
CN1CCN(c2ncnc3sc4c(c23)CCCC4)CC1
    6	2
Cc1ccccc1-c1nc(Cn2cncn2)c(C)o1
    6	0
COc1ccc2c(c1)CCCN2C(=O)c1ccc(N2CC(C)OC(C)C2)nc1 (stereo not given)
    0	-1
CCN(CC)S(=O)(=O)c1ccc(C(=O)N2CCC(C(=O)OC)CC2)cc1
    0	6
CCc1nc(CN(C)CC2(c3ccc(C)cn3)CCNCC2)no1
    21	5
CC(C)CCc1nc(N2CCN(C(=O)Nc3cccc(C(F)(F)F)c3)CC2)c2cnn(-c3cccc(Cl)c3)c2n1
    14	21
CC(C)Cc1n[nH]c2c1CN(C(=O)c1ccc3c(c1)CCO3)CC2
    1	-2
COc1ccc(Cc2nc3c(c(=O)[nH]2)CN(C(=O)Nc2ccc(OC)cc2)CC3)cc1
    -1	7
O=C(NCCn1ncc2c(N3CCCCCC3)ncnc21)c1cccs1
    1	0
Cc1nn2cc(CCNC(=O)c3cn(CC4CCCO4)nn3)nc2s1 (stereo not given)
    -1	-3
CCC(COC)NC(=O)c1cc(COc2cccc(OC)c2)on1 (stereo not given)
    10	1
Cc1cc(N2CCCN(Cc3cnc(N4CCCCC4)nc3)CC2)ccn1
    13	15
Cc1cc(C)cc(OCC(=O)NNC(=O)c2ccc(C(C)(C)C)cc2)c1
    0	-7
O=C1CC(c2cccc(Cl)c2)Cc2c1cnn2-c1nc2ccccc2[nH]1 (stereo not given)
    2	0
CC(=O)c1sc(Nc2nc3cc4c(cc3s2)OCO4)nc1C
    0	-1
COc1cccc(OCc2ccc(Cn3nc(NC(=O)NCc4ccc(F)cc4)c4ccccc43)cc2)c1
    19	15
O=C(O)c1c2ccccc2cc2ccccc12
    -1&-7	8&-15
COC(=O)C(OC(=O)c1ccsc1)c1cc(Cl)cc(Cl)c1 (stereo not given)
    4	1
Cc1cc(C)c(C)c(S(=O)(=O)Nc2ccccc2C(=O)NCCc2ccccc2)c1C
    -3	-6
Cc1cc(C)n(C(C)CNC(=O)c2cccc(Br)c2)n1 (stereo not given)
    -2	-2
O=C(c1ccc([N+](=O)[O-])cc1)N1CCSC12CCNCC2
    14	15
COC(C)c1ccc(-c2ccc(NC(=O)CN)c(F)c2)cc1 (stereo not given)
    -1&11	-2&1
CN1CCN(NC(=S)Nc2ccc(OC(F)F)cc2)CC1
    2	1
O=[N+]([O-])c1cc(S(=O)(=O)N2CCCC2)ccc1NN=C1c2ccccc2-c2ccccc21
    -3	-9
O=S1(=O)CCCN(Cn2nc(-c3cccs3)oc2=S)CC1
    12	10
C=C(C)Cn1c(N2CCN(Cc3ccccc3)CC2)nc2c1c(=O)[nH]c(=O)n2C
    13	5
CSC(=NC#N)N1CCN(Cc2nc[nH]c2C)CC1
    -1	-1
Cc1cc(C2C3=C(CC(C)(C)CC3=O)N(c3ncn[nH]3)C(=N)C2C#N)c(C)s1 (stereo not given)
    10	4
CS(=O)(=O)N1N=C(c2ccccc2)CC1c1cccc([N+](=O)[O-])c1 (stereo not given)
    4	12
Cc1ccn2c(NC(=O)CC(C)C)c(-c3ccccc3C)nc2c1
    -3	4
CCCCN(C=O)c1c(CC)nc2c(OCC(=O)c3ccc(F)cc3)cccn12
    0	4
O=C1C=CC(=NOS(=O)(=O)c2cc(Cl)ccc2Cl)C=C1
    9	7
COc1ccc(S(=O)(=O)NCC2CCN(Cc3ccsc3)CC2)cc1Cl
    -12	-13
N#CC(C(=O)CN1C(=O)CCc2ccccc21)c1nc2ccccc2o1 (stereo not given)
    6	-7
c1ccc(CSC2=NCCS2)cc1
    0	8
Nc1ccc(-c2cc(NCCO)nc3[nH]ccc23)cn1
    6	-5
Brc1ccc(OCc2nnc3n2CCCCC3)cc1
    1	7
